Source: PubChem (National Center for Advancing Translational Sciences (NCATS))
ClpP mod: qHTS Assay for Activators of ClpP | Potency, µM (titrated, usually from 57.5 µM), without a hit: at the top dose activity change, negative = active | hit rate 1.9% among 340,000 | ATP-dependent Clp protease proteolytic subunit (Bacillus subtilis (strain 168)), P80244 | purified B. subtilis ClpP, FRET peptide cleavage, 20 min; active = well fitted falling curve with a large enough effect; inconclusive = small, poorly fitted or top-dose-only effect; inactive = no such curve, though single readings can be large or run the other way; further: the source files actives as falling curves though it sought activators and does not explain the sign; nearly all actives have a fitted effect of over 65% in size; many hits overshoot -100%
Target sequence (P80244 whole entry, looked up): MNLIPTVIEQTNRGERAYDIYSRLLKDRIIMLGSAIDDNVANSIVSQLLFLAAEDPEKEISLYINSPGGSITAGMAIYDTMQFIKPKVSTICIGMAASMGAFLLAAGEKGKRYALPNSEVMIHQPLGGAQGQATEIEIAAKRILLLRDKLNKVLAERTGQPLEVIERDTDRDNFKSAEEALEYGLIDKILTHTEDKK
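ClpP 10 microg/mL final, pH 8 Tris/KCl buffer with BSA, glycerol, Tween-20; compound pinned in; FRET-FV substrate; RT 20 min; Ex320/Em430; ΔFRET vs ADEP 5.8 microM, DMSO, no enzyme.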
* = called active by the depositor. Potency means the concentration at half of the fitted maximal effect.

How did CC1(C(=O)NS(=O)(=O)c2cccs2)CCN1C(=O)c1ccccc1 (stereo not drawn) do in these assays?
ClpP mod: -1.4%

Results for CCOC(=O)C1=CCN(S(=O)(=O)c2ccccc2Cl)C1c1cccc(F)c1 (stereo not drawn) ?
ClpP mod: 0.6%

Results for COc1ccc(/C=C/c2cc[n+](C)c3ccccc23)cc1OC ?
ClpP mod: -0.5%

How did O=C(O)c1cccc(-c2csc(C(O)(c3ccccc3)C(F)(F)F)n2)c1 (stereo not drawn) do in these assays?
ClpP mod: 0.0%

Results for Cc1c(C(=O)NCc2ccc(C(C)C)cc2)sc(=O)n1Cc1ccc(S(=O)(=O)N(C)C)cc1 ?
ClpP mod: -0.5%

How did O=C(/C=C/[C@H]1O[C@@H](n2cnc3c(NC(=O)c4ccccc4)ncnc32)[C@H](O)[C@@H]1O)NCCCc1ccccc1 do in these assays?
ClpP mod: 0.2%

How did COc1ccc(C(C)(O)c2nc(-c3ccc(N(C)C)cc3)cs2)cc1 (stereo not drawn) do in these assays?
ClpP mod: -4.3%

What do the screens show for `CCOC(=O)[C@]12CCC=C1N(CCC1=CCCCC1)C(=O)[C@H](CC(=O)NCc1ccc(C)o1)C2`?
ClpP mod: 1.0%

Results for CN(C)c1ccc(/C=C/c2cc(=O)[nH]c3ccccc23)cc1 ?
ClpP mod: -15%

Results for CCOc1cc(OCC)cc(C(=O)N2CCC[C@H]2C(=O)N2CCC[C@H]2C(=O)NCc2cccc(OC)c2)c1 ?
ClpP mod: 1.3%

Results for O=C(NCCc1ccccc1)C1Cc2c(-c3ccc4c(c3)OCO4)ccnc2O1 (stereo not drawn) ?
ClpP mod: 4.5%

How did CCNC(=O)c1ccc2nc(-c3ccccc3)c(-c3ccccc3)nc2c1 do in these assays?
ClpP mod: 4.0%

What do the screens show for `Cc1ccc(NC(=O)c2nc(S(=O)(=O)Cc3ccccc3F)ncc2Cl)cc1C`?
ClpP mod: 0.7%

How did COc1ccc(NC(=O)Nc2cccc3[nH]c([C@@H]4O[C@H](CO)[C@@H](O)[C@H](O)[C@H]4O)nc23)cc1OC1CCCC1 do in these assays?
ClpP mod: -1.2%

What do the screens show for `O=C1NC[C@H](CCCCN2CCN(Cc3ccccc3)C(=O)C2=O)N(CC2CCCCC2)C1=O`?
ClpP mod: 0.9%

How did CCCN1CNc2c(c(=O)[nH]c(=S)n2CCc2ccccc2C)C1 do in these assays?
ClpP mod: -0.9%

How did O=S1(=O)N[C@@H](Cc2ccccc2)COc2cc(N3CCSCC3)ccc21 do in these assays?
ClpP mod: -6.7%

Results for COc1ccc2c(CN(Cc3ccccc3)Cc3ccccc3)cc(=O)oc2c1 ?
ClpP mod: inconclusive

How did CC(C)[C@@H]1Cc2[nH]c(=O)[nH]c(=O)c2[C@H](C)O1 do in these assays?
ClpP mod: 1.0%

Results for OC[C@@H]1CN(Cc2ccc3c(c2)OCO3)C[C@H](n2cnc3c(NCc4ccco4)ncnc32)O1 ?
ClpP mod: -0.6%

What do the screens show for `C1=C/C(=C2/C=Cc3ccccc32)c2ccccc2N1`?
ClpP mod: 1.4%

How did CSCCC(C(=O)NC1CCCC1)n1c(-c2ccccn2)nc2ccccc21 (stereo not drawn) do in these assays?
ClpP mod: inconclusive

Results for c1ccc(COc2cccc(-c3cc4nc(NCCCn5ccnc5)ccn4n3)c2)cc1 ?
ClpP mod: 4.4%

How did CCN(CC)c1ccc(/C=C/c2c(C)cnc3ccccc23)cc1 do in these assays?
ClpP mod: -1.0%

What do the screens show for `Clc1cccc[n+]1CCc1ccccc1`?
ClpP mod: -9.7%

What do the screens show for `CCOC(=O)[C@]12CCC=C1N(Cc1cccc3ccccc13)C(=O)[C@H](CC(=O)NCc1ccccc1)C2`?
ClpP mod: -3.9%

What do the screens show for `CCCC(=O)N1CCC1(C)C(=O)Nc1ccc2nc(C)ccc2c1` (stereo not drawn)?
ClpP mod: -22%

How did Cc1cccc(C)c1-n1nnnc1C(c1cccc2ccccc12)N1CCN(C/C=C/c2ccccc2)CC1 (stereo not drawn) do in these assays?
ClpP mod: -1.9%

What do the screens show for `COc1cccc(C(O)c2ncc(-c3cccc4ccccc34)[nH]2)c1` (stereo not drawn)?
ClpP mod: 4.2%

How did CS(=O)(=O)N1CCCCC1c1cc(C(=O)Nc2cccc(C#N)c2)no1 (stereo not drawn) do in these assays?
ClpP mod: 2.6%

Results for COCCN1C[C@@H](CO)O[C@@H](n2cnc3c(NCc4ccc(F)cc4)ncnc32)C1 ?
ClpP mod: -0.8%

How did Cc1ccc(-c2nc3c(Cl)cc(C(F)(F)F)cn3c2Cc2cccc(Cl)c2)cc1 do in these assays?
ClpP mod: -12%

How did O=C(O)c1c2c(nc3ccccc13)CCCC2 do in these assays?
ClpP mod: -2.5%

What do the screens show for `Cc1cccc(C)c1NC(=O)CN1CCN(C/C=C/c2ccccc2)CC1`?
ClpP mod: -1.0%

What do the screens show for `Cc1ccc(S(=O)(=O)NC(=O)C2(C)CCN2C(=O)c2ccccc2CCc2ccccc2)nc1` (stereo not drawn)?
ClpP mod: 0.8%

Results for OC(c1cc(Cl)cc(Cl)c1)c1ncc(-c2ccccc2F)[nH]1 (stereo not drawn) ?
ClpP mod: -1.3%

How did COc1cccc(CNc2nc(NCc3cccs3)nc3ccsc23)c1 do in these assays?
ClpP mod: -17%

How did CN(C)CCCNc1nc2cc(-c3ccn[nH]3)sc2c(=O)n1C do in these assays?
ClpP mod: -13%

How did CN(C)c1ccc(-c2ccnc3c2CC(C)(C(=O)Nc2cccc(OC(F)(F)F)c2)O3)cc1 (stereo not drawn) do in these assays?
ClpP mod: 4.6%

What do the screens show for `Cn1nccc1-c1coc2c(C(=O)NCC3CCOCC3)cccc12`?
ClpP mod: -4.5%

What do the screens show for `CN(C)C1CN(Cc2cn(Cc3ccc(F)cc3)nn2)S(=O)(=O)C1` (stereo not drawn)?
ClpP mod: 1.6%

Results for CCOC(=O)C1=CCN(S(=O)(=O)c2ccc(F)cc2)C1c1ccc(Cl)c(Cl)c1 (stereo not drawn) ?
ClpP mod: -3.0%

What do the screens show for `CC(C)(C)Cc1c(-c2cccc(Br)c2)nc2ccc(Cl)cn12`?
ClpP mod: -9.5%

How did Cc1ccc([C@@H]2CC(=O)[C@@H]3CN(S(=O)(=O)c4ccc(C)cc4)[C@H](c4ccccc4F)C[C@@H]3N2S(=O)(=O)c2ccc(Cl)cc2)cc1 do in these assays?
ClpP mod: -0.2%

What do the screens show for `CCCC(=O)N1CCCC1(C)C(=O)Nc1ccc(OC(F)F)cc1` (stereo not drawn)?
ClpP mod: 2.9%

Results for Cc1ccccc1-c1cc2nc(Oc3cccc(F)c3)n(C)c(=O)c2s1 ?
ClpP mod: inconclusive

Results for CN(C)c1ccc(C=C2C(=O)c3ccccc3C2=O)cc1 ?
ClpP mod: 1.0%

Results for Cc1c(C(=O)NCc2ccccc2C(F)(F)F)sc(=O)n1Cc1ccc(S(=O)(=O)N(C)C)cc1 ?
ClpP mod: -1.5%

Results for CCCS(=O)(=O)NC(=O)C1(C)CCN(C(=O)COc2ccc(Cl)cc2Cl)C1 (stereo not drawn) ?
ClpP mod: 1.2%

What do the screens show for `CC1(C(=O)Nc2ccc(F)c(Cl)c2)Cc2c(-c3cccc(C(N)=O)c3)ccnc2O1` (stereo not drawn)?
ClpP mod: -4.1%

What do the screens show for `O=C(Nc1ccc2c(c1)OCCO2)C(CCc1ccccc1)N1CCN(C/C=C/c2ccccc2)CC1` (stereo not drawn)?
ClpP mod: 1.3%

How did CCCCNC(=O)C1(C)CCN1C(=O)c1ccc(F)c(C)c1 (stereo not drawn) do in these assays?
ClpP mod: -1.7%

How did COC(=O)[C@]12CCCCC=C1N(Cc1ccccc1)C(=O)[C@H](CC(=O)N1CCC(c3ccccc3)CC1)C2 do in these assays?
ClpP mod: 1.7%

Results for c1csc(-c2ccc3nncn3c2)c1 ?
ClpP mod: -14%

What do the screens show for `CC(Oc1ccccc1)C(=O)N[C@@H]1C(=O)N2[C@@H]1SC(C)(C)[C@@H]2C(=O)OCc1ccccc1` (stereo partly drawn)?
ClpP mod: 1.5%

Results for COC(=O)[C@]12CCCCC=C1N(CCC1=CCCCC1)C(=O)[C@H](CC(=O)N1CCCC1)C2 ?
ClpP mod: -1.9%

What do the screens show for `CCOC(=O)N1C(=O)C[C@](Sc2ccc(C)cc2)(C(=O)OC)[C@H]1c1ccccc1`?
ClpP mod: 0.9%

Results for Cn1cc(-c2cnc3c(NC=O)cc(-c4cccc(C(F)(F)F)c4)cn23)cn1 ?
ClpP mod: -19%

What do the screens show for `COc1ccc(-c2cc(NC=O)c3ncc(-c4cccc(C(=O)NCCN(C)C)c4)n3c2)cc1`?
ClpP mod: -11%

Results for COc1cccc(Nc2nc(C(N)Cc3ccccc3)cs2)n1 (stereo not drawn) ?
ClpP mod: -4.4%

Next part; the last 4 above are carried over.
What do the screens show for `CCOC(=O)N1C(=O)C[C@](Sc2ccc(C)cc2)(C(=O)OC)[C@H]1c1ccccc1`?
ClpP mod: 0.9%

Results for Cn1cc(-c2cnc3c(NC=O)cc(-c4cccc(C(F)(F)F)c4)cn23)cn1 ?
ClpP mod: -19%

What do the screens show for `COc1ccc(-c2cc(NC=O)c3ncc(-c4cccc(C(=O)NCCN(C)C)c4)n3c2)cc1`?
ClpP mod: -11%

Results for COc1cccc(Nc2nc(C(N)Cc3ccccc3)cs2)n1 (stereo not drawn) ?
ClpP mod: -4.4%

Results for CCc1nc2c(OCCOc3ccc(F)cc3)cccn2c1N(C)C(=O)c1ccc(C)cc1 ?
ClpP mod: 1.8%

What do the screens show for `CC1(C(=O)Nc2cccc(OC(F)(F)F)c2)Cc2c(-c3ccc(C(N)=O)cc3)ccnc2O1` (stereo not drawn)?
ClpP mod: -5.3%

Results for CC(C)n1nnnc1C1c2ccccc2C(=O)N1CCc1ccc(O)cc1 (stereo not drawn) ?
ClpP mod: -0.4%

How did COc1ccc(-c2nc3c(Cl)cc(C(F)(F)F)cn3c2Cc2cccc(Cl)c2)cc1OC do in these assays?
ClpP mod: 5.0%

What do the screens show for `Cn1c(=O)c2cc(NC(=S)NCc3ccccc3F)ccc2n1Cc1ccccc1`?
ClpP mod: 4.9%

Results for O=C1c2ccccc2C(c2nnnn2-c2ccc3c(c2)OCCO3)N1Cc1ccccc1 (stereo not drawn) ?
ClpP mod: 0.9%

Results for CC(=O)Nc1ccc(NC(=O)c2csc([C@@H]3C[C@H](O)[C@@H](CO)O3)n2)cc1 ?
ClpP mod: 1.8%

How did COC(=O)C[C@@H]1C=C[C@@H](NC(=O)CN(C)C)[C@@H](CO)O1 do in these assays?
ClpP mod: 3.5%

Results for CCCCN(C=O)c1c(CC)nc2c(OCc3ccc(Cl)cc3)cccn12 ?
ClpP mod: inconclusive

Results for Cc1ccc(Nc2nc(N)nc(N)c2N=O)cc1Cl ?
ClpP mod: 1.8%

A portion from the list above:
How did CC1(C(=O)NS(=O)(=O)c2cccs2)CCN1C(=O)c1ccccc1 (stereo not drawn) do in these assays?
ClpP mod: -1.4%

Results for CCOC(=O)C1=CCN(S(=O)(=O)c2ccccc2Cl)C1c1cccc(F)c1 (stereo not drawn) ?
ClpP mod: 0.6%

Additional entries:
Results for CCCCC[C@@H](C)N1C[C@@H](COCc2ccccc2)Oc2cc(N3CC[C@H](O)C3)ccc2S1(=O)=O ?
ClpP mod: -21%

Results for CCOC(=O)[C@]12CCCC=C1N(Cc1ccc3c(c1)OCO3)C(=O)[C@H](CC(=O)N1CCCCC1)C2 ?
ClpP mod: -1.2%

What do the screens show for `O=C(NCc1ccccc1)[C@@H]1CCCN1C(=O)[C@@H]1CCCN1C(=O)c1cccc2ccccc12`?
ClpP mod: 1.4%

How did CC(=O)Nc1ccc(-c2ccnc3c2CC(C(=O)Nc2ccc4c(c2)OCO4)O3)cc1 (stereo not drawn) do in these assays?
ClpP mod: -9.0%

How did CN(C)CCNC(=O)c1cccc(-c2cnc3c(NC=O)cc(-c4ccc(F)cc4)cn23)c1 do in these assays?
ClpP mod: -20%

Results for CC(C)Nc1nc(NCCO)nc2ccccc12 ?
ClpP mod: 4.8%

How did CN(Cc1ccccc1)C(=O)c1csc([C@H]2C[C@H](O)[C@@H](CO)O2)n1 do in these assays?
ClpP mod: -1.1%

What do the screens show for `COc1ccc(N2C(=O)c3ccccc3NC2c2ccc(OC)c(COc3ccc(NC(C)=O)cc3)c2)cc1` (stereo not drawn)?
ClpP mod: inconclusive

How did c1ccc(Oc2ccccc2-c2cc(NCCc3cccnc3)n3nccc3n2)cc1 do in these assays?
ClpP mod: 4.9%

Results for OC(c1ccccc1)(c1nc(-c2cccc(F)c2)cs1)C(F)(F)F (stereo not drawn) ?
ClpP mod: -0.1%

How did CN(Cc1cn(Cc2ccc(F)cc2)nn1)C1CN(Cc2cn(Cc3ccc(F)cc3)nn2)S(=O)(=O)C1 (stereo not drawn) do in these assays?
ClpP mod: 2.3%

Results for O=C(COc1ccccc1C(=O)Nc1ccccc1)Nc1ccccc1F ?
ClpP mod: 1.3%

How did C(=C\c1ccccc1)/CN1CCN(C(c2cccc3ccccc23)c2nnnn2Cc2ccccc2)CC1 (stereo not drawn) do in these assays?
ClpP mod: -0.1%

How did CC(C)Oc1ccc(CN2CCC2(C)C(=O)Nc2ccc3c(c2)OCO3)cc1 (stereo not drawn) do in these assays?
ClpP mod: 0.2%

What do the screens show for `O=C(Nc1cccc(Cl)c1)c1ccc2sc([C@H]3C[C@H](O)[C@@H](CO)O3)nc2c1`?
ClpP mod: -0.6%

Looked up by compound from above, two records:
What do the screens show for `Cn1nccc1-c1coc2c(C(=O)NCC3CCOCC3)cccc12`?
ClpP mod: -4.5%

How did O=S1(=O)N[C@@H](Cc2ccccc2)COc2cc(N3CCSCC3)ccc21 do in these assays?
ClpP mod: -6.7%

An excerpt. The share of hits here may be higher or lower than overall.
